High-throughput results: PubChem, National Center for Advancing Translational Sciences (NCATS)
MARV entry inh: qHTS for inhibitors of binding or entry into cells for Marburg Virus; AID 540276, 2011; actives 1.8% (n = 300,000); Potency, µM (highest dose often 37.8 µM), inactives show top-dose activity change, negative = inhibition, usual class: inhibitors; Marburg virus pseudotyped entry inhibition, cell reporter; control for the full effect not named in the record; about a third of the inactives were read at about 46 µM; active = well fitted inhibition curve with a large enough effect; inconclusive = small, poorly fitted or top-dose-only effect, or effect the other way; inactive = flat fitted curve, though single readings scatter; tested in HEK293 cells; about a fifth of its hits are not listed in these tables; further: on the % scale 0 is the no-effect control and ±100 the full control effect; luciferase read-out
RE007 growth inh: qHTS Assay for Inhibitors of the HIV-1 protein Vpr | S. pombe RE007 Vpr strain, BacTiter-Glo ATP luminescence, 24 h; control for the full effect not named in the record | Potency, µM (doses to about 92.2 µM), for inactives: at the highest dose activity change, negative = less growth | actives 0.21% (n = 360,000) | AID 651644, 2012; active = well fitted falling curve with a large enough effect; inconclusive = small, poorly fitted or top-dose-only effect; inactive = no such curve, though single readings can be large or run the other way;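 further: on the % scale 0 is the no-effect control and ±100 the full control effect; nearly all actives have a fitted effect of over 50% in size; the assay follows cell death caused by Vpr and the record does not say whether a fall means rescue or toxicity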
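Fission yeast RE007 carrying one integrated HIV-1 vpr copy, seeded at OD 0.01 in PMG+AL medium with 23 nL pinned compound. Grown 24 h at 30 degrees; viability read by BacTiter-Glo luminescence after 5 min.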
Cruzain Triton: qHTS Assay for Promiscuous and Specific Inhibitors of Cruzain (with detergent) | AID 1478, 2009 | purified cruzain, Z-FR-AMC fluorescence, 0.01% Triton | Potency, µM, without a hit: max response, negative = inhibition, actives largely listed as inhibitors | actives 0.43% (n = 200,000);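 further: plate controls were neutral wells for no effect and buffer without enzyme for full effect; nearly all actives have a fitted effect of over 40% in size; top concentration of the series not given in the record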
Target sequence (P25779 123-467 limits assumed): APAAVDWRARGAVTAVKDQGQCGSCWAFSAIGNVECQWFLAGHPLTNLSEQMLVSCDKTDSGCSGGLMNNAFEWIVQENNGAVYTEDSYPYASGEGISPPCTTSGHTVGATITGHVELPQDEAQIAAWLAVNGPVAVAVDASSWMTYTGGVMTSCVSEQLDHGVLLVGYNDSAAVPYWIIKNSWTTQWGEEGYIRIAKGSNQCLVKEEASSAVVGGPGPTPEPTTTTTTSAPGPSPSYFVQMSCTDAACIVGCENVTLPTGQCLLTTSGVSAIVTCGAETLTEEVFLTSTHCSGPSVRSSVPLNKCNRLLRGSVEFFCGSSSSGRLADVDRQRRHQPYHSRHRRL
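Read-out: AMC fluorescence (360 nm excitation, 450 nm emission), four reads over 2 min, first-to-third difference used. Conditions: cruzain 1.5 nM, Z-FR-AMC 2 uM, pH 5.5 acetate, 5 mM DTT, 0.01% Triton X-100.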
NS1 function inh: qHTS Assay for Inhibitors of Influenza NS1 Protein Function; Potency, µM (titrated, usually from 46.1 µM), for the others: at the top dose activity, positive = more growth; actives 0.4% (n = 270,000); S. cerevisiae slowed by influenza A NS1, growth recovery by OD600; AID 2326, 2010; active means well fitted rising curve with a large enough effect; inconclusive means small, poorly fitted or top-dose-only effect; inactive means no such curve, though single readings can be large or run the other way; further: nearly all actives have a fitted effect of over 50% in size
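A cell-based growth assay was used: compounds that relieve NS1-induced slow growth of budding yeast raise OD600. Assay medium was yeast nitrogen base with ammonium sulphate and -URA supplement, pH 6.0, with 2% galactose.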
Cruzain inh noDet: qHTS Assay for Promiscuous and Specific Inhibitors of Cruzain (without detergent). purified cruzain, Z-FR-AMC fluorescence, no detergent. AID 1476, 2009. actives 2.3% (n = 200,000). Cruzipain (Trypanosoma cruzi), P25779. Potency, µM, without a hit: max response, negative = inhibition, actives largely listed as inhibitors;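 further: plate controls were enzyme without inhibitor for no effect and buffer without enzyme for full effect; nearly all actives have a fitted effect of over 40% in size; top concentration of the series not given in the record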
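Detergent-free condition (0.00005% Triton X-100) in acetate buffer pH 5.5 with DTT. 1.5 nM enzyme and compound were pre-mixed 15 min, then 2 uM Z-FR-AMC substrate added; reaction progress from fluorescence change between first and third reads (60 s).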
StopGo reporter: High Throughput Screening for Foot and Mouth Disease Virus Antivirals | human cells with a luciferase reporter of 2A StopGo recoding; control for the full effect not named in the record | Potency, µM (top dose mostly 57.9 µM), without a hit: at the highest dose signal change, negative = less light | actives 1.2% (n = 410,000) | AID 1159524, 2015; active = well fitted falling curve with a large enough effect; inconclusive = small, poorly fitted or top-dose-only effect; inactive = no such curve, though single readings can be large or run the other way; tested in HEK293T cells; further: on the % scale 0 is the no-effect control and ±100 the full control effect; nearly all actives have a fitted effect of over 45% in size; luciferase light after 4 h
SARS PLpro yeast: qHTS of Yeast-based Assay for SARS-CoV PLP; S. cerevisiae expressing SARS-CoV PLpro, growth rescue; control for the full effect not named in the record; Potency, µM (highest dose often 32.9 µM), for inactives: at the highest dose activity, positive = growth rescue; actives 0.19% (n = 330,000); active means well fitted rising curve with a large enough effect; inconclusive means small, poorly fitted or top-dose-only effect; inactive means no such curve, though single readings can be large or run the other way; further: 0% is about no effect; nearly all actives have a fitted effect of over 55% in size; growth read by luminescence after 48 h
LASV entry inh: qHTS for Inhibitors of binding or entry into cells for Lassa Virus. Lassa virus pseudotype entry inhibition, cell reporter; control for the full effect not named in the record. Potency, µM (titrated, usually from 37.9 µM), for the others: top-dose activity change, negative = inhibition, usual class: inhibitors. actives 1.2% (n = 300,000). AID 540256, 2011; active means well fitted inhibition curve with a large enough effect; inconclusive means small, poorly fitted or top-dose-only effect, or effect the other way; inactive means flat fitted curve, though single readings scatter; tested in HEK293 cells; further: on the % scale 0 is the no-effect control and ±100 the full control effect; nearly all actives have a fitted effect of over 50% in size; luciferase read-out
The depositor's hits bear a star; ? = inconclusive; · = no result given; & = joins results of further samples; [ ] = dose if it differs, or a comment. Unless noted, the call rests on the fitted dose curve; in most records, active means well fitted curve in the direction sought with a large enough effect; inconclusive means small, poorly fitted or top-dose-only effect, or another doubt; inactive means no such curve, though single readings can be large; an effect the other way counts as inactive or inconclusive. Potency means the concentration at half of the fitted maximal effect.

SMILES	MARV entry inh	RE007 growth inh	Cruzain Triton	NS1 function inh	Cruzain inh noDet	StopGo reporter	SARS PLpro yeast	LASV entry inh
CC1(C)CC(=O)C(C2c3ccccc3Oc3ccccc32)C(=O)C1	20%&20%	4%	-5.5%	-9%	16%	-14%	-27%	-7%
COc1ccc(N2CC(C(=O)Nc3ccc(N4CCOCC4)cc3)CC2=O)cc1 (centres undefined)	-8%	1%	4.1%	-3%	8%	-14%	?	3%
COc1cccc(-n2nnc3c(=O)n(CC(=O)N4CCCCC4)cnc32)c1	?	-3%	3.6%	-6%	9%	16%	0%	23%
COc1cc(OC)c(C(=O)Nc2ncn[nH]2)cc1OC	8%[46.1 µM]	-15%	·	·	·	-22%	·	-8%
CCC1CCCCN1CCN1C(=O)C2C(C(=O)Nc3ccc(OC)cc3)C3C=CC2(O3)C1C(=O)NC1CCCCC1 (centres undefined)	?	2%	·	-10%	·	16%	0%	11%[46.1 µM]
CCCCN(C)CCCNC(=O)c1cc(=O)[nH]c2ccc(S(=O)(=O)N3CCCCC3)cc12	·	·	0.4%	·	1%	-7%	·	-2%[46.1 µM]
Cc1ccc(-c2nnc(-c3ccncc3)n2-c2ccc(C)cc2)cc1	9%	-4%	3.3%	4%	-7%	51%[activator]	4%	9%
O=C(O)CCC(=O)N1N=C(c2ccccc2)CC1c1ccc2c(c1)OCO2 (centres undefined)	·	13%	·	-2%	·	-4%	1%	·
COc1ccc(CNC(=O)c2c(O)c3cc(OC)c(OC)cc3[nH]c2=O)cc1OC	16%	-4%	·	16%	·	-10%	-10%	6%
O=C(c1ccc2c(=O)n(CC3CCCO3)c(=S)[nH]c2c1)N1CCN(c2ccccc2)CC1 (centres undefined)	1%	26%	0.3%	?	7%	?	-3%	?
Cn1c(=O)c2c(n3ncnc13)NC(=O)CC2c1cccc(F)c1 (centres undefined)	-4%[46.1 µM]	·	-0.8%	·	14%	4%	·	13%[46.1 µM]
CC(C)C(c1nnnn1Cc1ccc(F)cc1)N1CCSCC1 (centres undefined)	-5%	-2%	-2.0%	-8%	-13%	·	18%	-13%
CCCN(CC1CC1)C(=S)NC(=O)c1ccc(S(=O)(=O)N2CCOCC2)cc1	?	-13%	·	·	·	-5%	-1%	18%[46.1 µM]
CCCSc1nc(-c2ccccc2)cc(C(F)(F)F)c1C#N	-5%	3%	-3.0%	2%	-23%	-20%	-5%	6%
COc1ccc(NC(=O)CSc2nc(N)c(C#N)cc2C#N)cc1	0%	2%	-10%	1%	-7%	0%	8%	6%
CCOP(=O)(OCC)C(NC(=O)Nc1ccccc1)c1ccccc1 (centres undefined)	?	-17%	-2.1%	-1%	14%	5%	?	3%
CCNC(=S)/N=C(/Nc1ccccc1)Nc1nc(C)cc(C)n1	?	-2%	·	-8%	·	-8%	0%	?
O=C(c1sc2ccccc2c1Cl)N1CCN(c2ccc(F)cc2)CC1	30%	-21%	-7.1%	-47%	2%	-1%	-10%	-1%
COc1ccc(C(=O)Nc2ccc3ccccc3c2)c(OC)c1	?	?	·	-85%	·	-36%	-10%	?
CCOC(=O)CNC(=O)CSc1nnc(Cn2cnc3ccccc32)n1C	2%	9%	2.7%	-6%	-4%	3%	6%	-1%
CCCc1nc2oc3ccccc3c(=O)c2c(=O)n1-c1ccccc1	17%	-17%	·	-3%	·	46%[activator]	-4%	13%
COc1ccc(C(=O)NC(C)c2nnc(SCC(=O)Nc3nc4ccccc4s3)n2C)cc1 (centres undefined)	-4%	0%	-2.6%	-1%	?	-7%	?	-3%
CCOc1nc(-c2ccccc2)ncc1Oc1ccccc1	0%[14.2 µM]	-11%	·	·	·	-23%	·	24%
CCOc1ccc(NC(=O)CN(c2ccc([N+](=O)[O-])cc2)S(=O)(=O)c2ccccc2)cc1	?	-2%	-7.0%	30%	-8%	8%	-6%	?
O=C(NCc1cccs1)c1cnc2sccn2c1=O	·	11%	-1.8%	-15%	-4%	1%	-1%	·
CC(=O)c1c(C)[nH]c(C(=O)CSc2ncnc3sc(-c4ccccc4)cc23)c1C	?	3%	-3.6%	?	-4%	0%	-1%	-1%
COc1ccc(OC)c(CNC(=O)C2CCCN(c3ncnc4onc(-c5ccc(F)cc5)c34)C2)c1 (centres undefined)	·	·	-0.4%	·	-9%	-16%	·	1%[46.1 µM]
Cc1cccc(NC(=O)CCN2CCN(C/C=C/c3ccccc3)CC2)c1	?	8%	0.8%	-6%	9%	-27%	?	?
COc1ccc(NC(=O)c2ccco2)cc1S(=O)(=O)N1CCCCC1	1%	21%	·	-16%	·	11%	-7%	-5%
CCOC(=O)CSc1nnc(-c2ccc(Cl)cc2Cl)o1	-2%	-22%	1.8%	-21%	2%	0%	-8%	6%
O=C(NC(=S)Nc1ccc(Cc2ccncc2)cc1)c1ccccc1	?	-5%	-7.7%	19%	-18%	0%	7%	?
CC(C)OC(=O)c1cc(NC(=S)Nc2ccc([N+](=O)[O-])cc2)cc(C(=O)OC(C)C)c1	14µM*	?	-14%	-6%	-13%	?	5%	?
CCCC(C)(C)NC(=O)CCCCC(=O)NC(C)(C)CCC	2%	17%	4.7%	2%	?	6%	-1%	6%
Cc1cccc(N(Cc2cc3ccccc3[nH]c2=O)C(=O)c2cccs2)c1	8%	16%	·	10%	·	-24%	0%	2%
Cc1ccc(NC(=S)N2CCN(c3ccccc3F)CC2)c(C)c1	-14%	36%	·	12%	·	18%	2%	-21%
Cc1ccc2c(CC(=O)NC3CCS(=O)(=O)C3)coc2c1C (centres undefined)	·	5%	·	5%	·	-2%	5%	·
CCc1nc2c(C#N)c(-c3ccc(Cl)cc3)ccn2n1	-1%	-23%	6.5%	-8%	-4%	14%	8%[6.58 µM]	6%
COc1cccc(NC(=O)CN2C(=O)CC(c3ccco3)Sc3ccccc32)c1 (centres undefined)	1%[46.1 µM]	·	-5.5%	·	0%	-22%	·	·
Cc1nnc(NC(=O)CC(C)c2ccccc2)s1 (centres undefined)	·	-11%	·	16%	·	65%[activator]	-4%	·
COc1cccc(C(=O)N2CCn3c2nc2ccccc23)c1	-1%[46.1 µM]	-1%	·	5%	·	-1%	1%	10%
CCCS(=O)(=O)N1CCN(Cc2ccc3c(c2)c2ccccc2n3CC)CC1	10µM*	5%	-4.3%	-19%	12%	?	-16%	?
Fc1ccc(-c2noc3ncnc(Nc4ccc(F)cc4F)c23)cc1	·	·	-6.9%	·	1%	-14%	·	-29%[46.1 µM]
C=CCN1c2ccccc2[C@]23C[C@@H](C(=O)OC)N=C2NC(C(=O)OC)=C(C(=O)OC)[C@H]13	·	2%	·	0%	·	-20%	1%	·
CCc1ccc(NC(=O)N2CCN(c3nnc(C)c4c(C)n(-c5ccc(Cl)cc5)nc34)CC2)cc1	·	·	9.6%	·	4%	-8%	·	?
CNS(=O)(=O)c1cccc(C(=O)NC2CCCc3ccccc32)c1 (centres undefined)	-6%[46.1 µM]	-7%	·	-10%	·	47%[activator]	-1%	-2%
O=CN1CCC(=O)N(Cc2ccccc2)c2ccccc21	16%	5%	-2.1%	8%	2%	6%	21%	?
CC(NC(=O)c1ccc(N2CCCC2=O)cc1)c1ccccc1 (centres undefined)	?	-21%	-1.2%	15%	-1%	12%	2%	6%
CC(C)c1ccc(NC(=O)COc2nnc(-c3cccs3)c(-c3cccs3)n2)cc1	?	13%	-7.0%	21%	5%	0%	-2%	-10%
Cc1ccc(S(=O)(=O)N(Cc2ccc(C(F)(F)F)cc2)C(=O)N2CCN(C)CC2)cc1	30%	2%	·	·	·	-5%	-5%	15%
CCCNC(=O)N1CCC(c2nc3ccccc3s2)CC1	·	2%	·	-5%	·	-7%	0%	·
COC(=O)C1=C(C)n2cnnc2NC1c1ccc(Cl)cc1 (centres undefined)	·	1%	7.5%	-4%	8%	-17%	?	·
CCOc1ccccc1NC(=O)CCC(=O)Nc1ccccc1OCC	28%[46.1 µM]	-9%	0.1%	-6%	-11%	-2%	0%	-2%
CCN(CC)S(=O)(=O)c1ccc(OC)c(NC(=S)Nc2cccc(C)c2C)c1	3%	14%	-2.8%	18%	-1%	7%	17%	-5%
COc1ccc(NC(=O)C(CC(C)C)NS(=O)(=O)c2ccc3c(c2)oc(=O)n3C)cc1Cl (centres undefined)	-12%[46.1 µM]	·	2.7%	·	-4%	-6%	·	?
CCc1cccc(C)c1NS(=O)(=O)c1ccc2c(c1)CC(C)N2C(=O)C1CC1 (centres undefined)	·	·	-4.1%	·	-25%	?	·	-14%[46.1 µM]
O=C(O)C(NS(=O)(=O)c1ccccc1)C(O)c1ccccc1 (centres undefined)	-12%[46.1 µM]	2%	·	-5%	·	-4%	-1%	1%[46.1 µM]
COc1ccccc1NC(=O)CSc1ccc(-c2sc(C)nc2C)nn1	·	·	-10%	·	1%	?	·	0%[46.1 µM]
Cc1nc(NC(=O)c2cccnc2)ccc1Br	?	4%	3.3%	-7%	6%	19%	-3%	?
O=C(CCCn1c(SCC(=O)c2ccc(O)c(O)c2)nc2ccccc2c1=O)NCC1CCCO1 (centres undefined)	-20%&-20%	-9%	-8.2%	-6%	26%	-15%	-1%	2%
O=c1[nH]c(N/N=C\c2ccc(F)cc2)nc2ccccc12	?	-6%	·	-2%	·	38%[activator]	-2%	-20%
Cc1ccc2cc(CCNC(=O)c3c(-c4ccccc4Cl)noc3C)c(=O)[nH]c2c1	-1%	-8%	-6.3%	5%	-1%	-13%	-4%	·
CC(C)(C)c1ccc(C(=O)NCCc2ccccc2)cc1	·	2%	·	-7%	·	-28%	-1%	·
